RN4220 kill: growth inhibition of S. aureus RN4220, primary screen, OD600 | AID 1259311, 2017 | inhibition, % (test concentration not listed) | 0.33% of 330,000 active | 16 h;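 active = z-score of -3 or lower and OD600 up to 0.18 on both plates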;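 note: plate controls were untreated cells for no effect and reference antibiotic for full effect; stock transfer was 100 nL into about 80 µL; one replicate is shown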
ugtP null kill: growth inhibition of ugtP-null S. aureus, primary screen, RN4220 ugtP deletion, OD600; 16 h; some inactives read as strong as hits; growth inhibition, % (concentration not given with the values); 0.54% of 330,000 active; AID 1259309, 2017;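 active = z-score under -3 and OD600 up to 0.15 on both plates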;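 note: plate controls were untreated wells for no effect and antibiotic for full effect; wells of about 80 µL received 100 nL stock; the first replicate is given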
PrP UTR inh: inhibition of PrP 5' UTR reporter expression | cell-based PrP 5' UTR mRNA reporter, plate reader | inhibition, % (test concentration not listed) | 0.35% of 340,000 active | AID 488862, 2010;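 active = every replicate at 50% or more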;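 note: 0 = median of the neutral control wells; tested in H4 reporter cells; numbers are from one replicate; inactives centre near -14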
BJeLR viability: MLPCN primary cell-based screen for lethality selective to Ras in HRASV12 cells. 0.17% of 300,000 active. inhibition, % (no concentration beside the values). BJeLR (HRASV12) viability, CellTiter-Glo ATP luminescence, 48 h; reference of the scale not given here. AID 1554, 2009;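 active = replicate mean above 50%; inconclusive = above 50% but judged a plate artefact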;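 note: 50 nL library stock added to about 25 µL; numbers are from one replicate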
Mtb hypoxia inh: PubChem AID 1159583; M. tuberculosis hypoxia-regulated fluorescent reporter, fluorescence; fluorescence inhibition, % (no concentration beside the values); 0.1% of 300,000 active;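 active = 35 to 45% if threefold the growth effect, above 45% if 1.5-fold the growth effect; inactive = the rest, general growth blockers included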;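 note: wells of about 50 µL received 100 nL stock; 0% = vehicle wells and 100% = reference inhibitor wells; whole bacteria with a GFP reporter of the hypoxia response; strong numbers were not always called active; many hits fall short of the cut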
Bead autofluor: counter-screen for toxin protease inhibitors: compound fluorescence | compound autofluorescence counterscreen, microsphere flow cytometry; active compounds read high | fluorescence intensity (test concentration not listed) | 3.1% of 360,000 active | AID 624483;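 active = at least 3 SD above the mean of all compounds, about 16000 in these data; inconclusive = too few beads counted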;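 note: 100 nL of 1 mM stock went into each well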
Mtb hypoxia inh growth: also measured in Mtb hypoxia inh; calls as there; growth inhibition, %; measured here: M. tuberculosis growth (absorbance);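 0% = vehicle and 100% = reference antibiotic; read after six days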
The depositor's hits bear a star; u = inconclusive; x = not tested or not shown.

SMILES | RN4220 kill | ugtP null kill | PrP UTR inh | BJeLR viability | Mtb hypoxia inh | Mtb hypoxia inh growth | Bead autofluor
COC(=O)c1cccc(NC(=O)CSc2nnc(-c3ccco3)o2)c1 | 7.9 | -2 | -21 | -9 | -3 | -8 | 3840
CCC(C)NC(=O)C1CCN(S(=O)(=O)N2CCC3(CC2)OCCO3)CC1 (stereo not drawn) | -0.1 | 2 | -85 | -1 | -4 | 9 | 5237
CSCC[C@H](NC(=O)OC(C)(C)C)C(=O)NN=Cc1ccc2nccnc2c1 | 2.7 | 1 | x | x | -6 | 4 | x
COc1cc(C(=O)NCc2cn3ccsc3n2)cc(OC)c1OC | -5.0 | -8 | -19 | 6 | 0 | 2 | 13066
CCCc1ccc2oc(C(=O)N3CCC(N4CCCC(O)C4)CC3)c(C)c2c1 (stereo not drawn) | 2.5 | 5 | -20 | 5 | 0 | 2 | 8187
COC(=O)CSc1nnc2n1C(C)(C)Cc1ccccc1-2 | 2.8 | 6 | -15 | 2 | 3 | 2 | 16446*
Nn1c(SCc2ccccc2)nc2c(cnn2-c2ccccc2)c1=O | 2.9 | -4 | -58 | 4 | 4 | 0 | 2558
CC1CCN(C(=O)c2ccc(N3CC4CC(C3)c3cccc(=O)n3C4)c([N+](=O)[O-])c2)CC1 (stereo not drawn) | 4.0 | 5 | -81 | 19 | 7 | 9 | 2791
COc1cc(OC)cc(C(=O)NC(=S)N2C[C@H]3C[C@H](C2)c2cccc(=O)n2C3)c1 | 0.9 | 9 | -16 | -10 | x | x | 5822
COc1ccc(C2CC(=O)C=C(C=Cc3ccccc3)C2)cc1 (stereo not drawn) | 9.3 | 7 | x | x | 18 | 12 | x
COC(=O)CC1(Cc2ccccc2)C(=O)NC(=O)NC1=O | -2.3 | 4 | 4 | -1 | 10 | 11 | 2945
COc1cccc(C(=O)NC(=S)Nc2ccc(Cl)cc2C(=O)O)c1 | 5.8 | -2 | 0 | 0 | 9 | 5 | 4833
CCCCN(C)C(=O)C(Cc1ccccc1)NS(=O)(=O)c1ccc2c(c1)CCC(=O)N2 (stereo not drawn) | 4.7 | 4 | -10 | -4 | x | x | 5740
CC(C)C[C@H](NC(=O)C1CC(=O)N(c2ccc3c(c2)OCCO3)C1)C(=O)N1CCCCC1 (stereo partly drawn) | 0.1 | 4 | -3 | 7 | 13 | 5 | 4970
CCc1c(O)nc(SCC(=O)Nc2ccccc2OC)n(-c2ccccc2C)c1=O | -2.7 | 2 | -11 | 2 | -5 | 2 | 5582
O=C(NC1CCCN(C2Cc3ccccc3C2)C1)c1ccc(F)cc1Cl (stereo not drawn) | 3.9 | 10 | -16 | -1 | 3 | -6 | 4914
CCOC(=O)CSc1nnc([C@H](CC(C)C)NC(=O)OC(C)(C)C)o1 | 2.9 | 2 | -4 | 1 | x | x | 2447
CSCCC(C(=O)N1C[C@]2(C)C[C@H]1CC(C)(C)C2)N1C(=O)c2ccccc2C1=O (stereo partly drawn) | 3.1 | 6 | -28 | -5 | 23 | 12 | 4118
CC(=NNC(=O)CNC(=O)C(c1ccccc1)c1ccccc1)c1ccc(C)cc1 | 7.3 | 5 | x | x | 7 | 6 | x
COC(=O)c1cccc(NC(=O)/C(=C\c2ccccc2)NC(=O)c2ccccc2Cl)c1 | 21 | 1 | -13 | -8 | 2 | -4 | 9655
COc1ccc(OC)c(-c2cc(C(=O)NN=Cc3cc(OC)c(OC)cc3OC)c3ccccc3n2)c1 | -0.2 | -2 | x | x | -8 | -12 | x
COc1ccc(NC(=O)c2ccc(-c3ccc(C)c4ccccc34)o2)cc1 | 0.6 | 3 | -16 | -7 | 2 | 0 | 3538
CC1(C)Oc2ccc(C(=O)NN)cc2NC1=O | 2.9 | -1 | -7 | 10 | -1 | -4 | 4062
CC1CCN(C(=O)CSc2ccc(-c3ccccc3)nn2)CC1 | 1.6 | 4 | -15 | 21 | 13 | 7 | 4031
N#CCC(=O)Nc1ccc(C(=O)OCC(=O)C23CC4CC(CC(C4)C2)C3)cc1 | -7.5 | 6 | -31 | -5 | 5 | 6 | 7702
O=C(/C=C/c1ccc(F)cc1)NNC(=O)CCN1CCN(Cc2ccccc2)CC1 | -3.6 | -3 | -7 | 55* | 7 | 15 | 4335
COc1ccc([N+](=O)[O-])cc1C(=O)Nc1ccc(Cc2ccncc2)cc1 | -0.1 | 0 | -27 | 3 | -7 | 9 | 4127
Oc1ccc(C[C@@H]2CNCCN2CCc2cccc3ccccc23)cc1 | x | x | -1 | 7 | x | x | 3066
CC[C@]12c3[nH]c4ccccc4c3CCN1C(=O)C(CC(=O)NCCCN(C)C)C[C@@H]2C(=O)N1CCN(C(=O)C2CC2)CC1 (stereo partly drawn) | 4.3 | 6 | -9 | x | -7 | -5 | 2816
CCOC(=O)CCn1nnc(N)n1 | 4.8 | 0 | -26 | 6 | 3 | 3 | 12560
O=C(Nc1ccc(-n2cnnn2)cc1)c1cn2ccccc2n1 | 4.2 | 8 | -33 | -11 | -12 | -3 | 4620
CCCCCC(O)(c1ccc(OC)cc1)C(CN1CCOCC1)c1ccccc1 (stereo not drawn) | x | x | -21 | 1 | x | x | 3897
O=C1NCCCC1C(=O)NN=Cc1cccc(Cl)c1 (stereo not drawn) | 0.1 | -6 | x | x | 2 | 6 | x
O=c1c(Cl)c(N2CCC3(CC2)OCCO3)cnn1C12CC3CC(CC(C3)C1)C2 | 3.4 | 8 | x | -4 | -2 | -5 | x
O=C(NNC(=O)c1ccccc1O)c1ccc(NS(=O)(=O)c2ccc(F)cc2)cc1 | 6.8 | 17 | -14 | 6 | 11 | -6 | u
COc1ccccc1N1CCN(C(=O)C(C)CS(=O)(=O)c2ccc3c(c2)NC(=O)CS3)CC1 (stereo not drawn) | 0.3 | -11 | -9 | 14 | -6 | 5 | 5587
CC(C)N(CCNCC(O)COc1ccc(C(C)(C)c2ccccc2)cc1)C(C)C (stereo not drawn) | 1.4 | -4 | -20 | 6 | 17 | 13 | 5261
COc1ccc(NC(=O)CSc2nc(SC)ns2)c(OC)c1 | 5.0 | 12 | -50 | -2 | 8 | 5 | 3864
CCCc1cc(=O)[nH]c(SCc2csc(-c3ccccc3)n2)n1 | 13 | -21 | -11 | 12 | 5 | -3 | 2573
Cc1ccc(Cn2ncc(C)c2N)o1 | 2.8 | 3 | -13 | -14 | -3 | 11 | 3169
COc1cc(C(=O)COC(=O)CNC(=O)C2CCCCC2)cc(OC)c1OC | -3.0 | 7 | -15 | 0 | x | x | 3508
COc1ccc(OC)c(C2C(C(=O)c3cc4ccccc4o3)=C(O)C(=O)N2c2cc(C)on2)c1 (stereo not drawn) | 14 | 12 | -11 | -2 | -9 | -8 | 2440
Cc1nc(C(=O)N2CCCC(Nc3ccc(C)c(C)c3)C2)cs1 (stereo not drawn) | -7.8 | -13 | -9 | -6 | -10 | 0 | 4052
COc1ccc(N(Cc2cc3cc(OC)ccc3[nH]c2=O)S(C)(=O)=O)cc1 | 0.5 | -2 | -26 | -20 | 13 | 10 | 4547
O=C(NC12CC3CC(CC(C3)C1)C2)N1CCC(O)CC1 | 0.2 | 8 | -14 | 2 | x | x | 4258
C/C=C/c1ccc(OCC(=O)OCC(=O)Nc2c(C)nn(-c3ccccc3)c2C)c(OC)c1 | 3.6 | 13 | -19 | -11 | -4 | -3 | 5912
O=C(NC(=S)NNC(=O)c1cc2ccccc2cc1O)c1ccco1 | x | x | -13 | -2 | x | x | 3456
COc1ccccc1N1CCN(C2CCCN(C(=O)COc3ccccc3Cl)C2)CC1 (stereo not drawn) | x | x | 0 | 0 | x | x | 5476
COc1ccccc1NC(=O)NNC(=O)CCN1CCOCC1 | 1.4 | 5 | -18 | 4 | 10 | 2 | 5588
O=C(CCC(=O)NNC(=O)Nc1ccc(Cl)cc1)NCc1ccccc1 | 0.1 | 0 | -30 | 7 | 3 | 0 | 10925
C=C(C)C(=O)N1CC2(CC(c3cccc(NC(=O)CCCCC)c3)=NO2)CC1C(N)=O (stereo not drawn) | 4.6 | 0 | x | x | 6 | 9 | x
Cc1cc(C(=O)NCCCc2ccccc2)no1 | 1.8 | 3 | -27 | -5 | x | x | 11165
COC(=O)c1ccc(CSc2nnc(NC(=O)c3cc4c(s3)CCCC4)s2)cc1 | 11 | -9 | -23 | -5 | 2 | -4 | 3084
CC(C)(C)c1ccc(C(=O)Nc2ccc(Cl)cc2)cc1 | 1.3 | 3 | -147 | 3 | 12 | 1 | 1935
COc1ccccc1OCC(=O)NC1CCCc2ccccc21 (stereo not drawn) | -4.2 | -11 | -13 | -4 | 8 | -2 | 3639
Cc1ccc(S(=O)(=O)N2CCC(C(=O)OC(C)C(=O)NCc3ccccc3)CC2)cc1C (stereo not drawn) | 2.9 | 11 | -25 | -1 | 5 | 2 | 4339
CNc1cncc(C(=O)O)c1 | x | x | -15 | -19 | x | x | 2235
CCn1c(SCC(=O)Nc2cccc(C)n2)nnc1-c1ccco1 | 25 | -2 | -8 | 0 | x | x | 4643
CCOCCCNC(=S)N1CCN(Cc2ccc3c(c2)OCO3)CC1 | 0.6 | -3 | -13 | -3 | 2 | 9 | 3987
Cn1cc(Cl)c(C(=O)NN=Cc2ccc(OS(=O)(=O)c3ccccc3)cc2)n1 | 1.1 | 5 | x | x | 2 | 5 | x

The last six entries of the part before lead into the next:
SMILES | RN4220 kill | ugtP null kill | PrP UTR inh | BJeLR viability | Mtb hypoxia inh | Mtb hypoxia inh growth | Bead autofluor
COc1ccccc1OCC(=O)NC1CCCc2ccccc21 (stereo not drawn) | -4.2 | -11 | -13 | -4 | 8 | -2 | 3639
Cc1ccc(S(=O)(=O)N2CCC(C(=O)OC(C)C(=O)NCc3ccccc3)CC2)cc1C (stereo not drawn) | 2.9 | 11 | -25 | -1 | 5 | 2 | 4339
CNc1cncc(C(=O)O)c1 | x | x | -15 | -19 | x | x | 2235
CCn1c(SCC(=O)Nc2cccc(C)n2)nnc1-c1ccco1 | 25 | -2 | -8 | 0 | x | x | 4643
CCOCCCNC(=S)N1CCN(Cc2ccc3c(c2)OCO3)CC1 | 0.6 | -3 | -13 | -3 | 2 | 9 | 3987
Cn1cc(Cl)c(C(=O)NN=Cc2ccc(OS(=O)(=O)c3ccccc3)cc2)n1 | 1.1 | 5 | x | x | 2 | 5 | x
Cc1ccc(N=C2SC(C(=O)O)CC(=O)N2C)cc1C (stereo not drawn) | 2.0 | 0 | -25 | -1 | -2 | 2 | 4277
O=C(CN(C(=O)CCC(=O)Nc1nccs1)c1ccc2c(c1)OCO2)NCC1CCCO1 (stereo not drawn) | -1.1 | -3 | -6 | 0 | x | x | 2827
CC(=C/c1ccccc1)/C=N/n1cnnc1 | x | x | 8 | -13 | x | x | 9097
c1ccc2c(c1)OCCOCCOCCOCCOc1ccccc1OCCOCCOCCO2 | 1.9 | -5 | -8 | 2 | 5 | 8 | 2668
CC(=O)c1ccc(NC(=O)CSc2nnc(C3CC3)n2C2CC2)cc1 | 1.7 | 8 | 5 | x | 9 | 4 | 2973
COc1ccc(NC(=O)N2CCN(CCC#N)CC2)cc1 | 3.9 | 7 | -14 | -13 | -1 | -5 | 3941
CC(C)(C)n1nnnc1C(c1ccc2ncccc2c1)N1CCSCC1 (stereo not drawn) | -0.7 | 1 | -9 | 7 | -6 | 6 | 10456
O=C(NC(=O)c1ccccc1)C1=C(N2CCCC2)COC1=O | 8.4 | 8 | -16 | x | 14 | 10 | 4024
Cc1cccc(N2C(=S)NC3c4cc(Cl)ccc4OC2(C)C3C(=O)N(C)C)c1 (stereo not drawn) | -1.0 | 4 | -18 | 25 | 3 | -5 | 2838
Cc1ccc(/C=C2\SC(=S)N(CCC(=O)NCCCN3CCOCC3)C2=O)cc1 | 3.3 | 11 | -25 | 0 | -1 | 1 | 3625
O=C(O)C(Oc1ccc2c(-c3ccccc3)cc(=O)oc2c1)c1ccccc1 (stereo not drawn) | 2.7 | 4 | -24 | 12 | 13 | -2 | 4917
Nc1cc(C(F)(F)F)ccc1Nc1ccccc1 | 0.3 | -1 | -18 | 8 | 1 | -3 | 2001
CC1=[N+](C)N(c2ccccc2)C(=O)C1N=Cc1c(Cl)cccc1Cl (stereo not drawn) | 6.4 | 4 | -15 | -4 | -2 | 5 | 2503
